High-throughput results: PubChem, several laboratories
Env fusion inh = inhibitors of HIV Env-mediated cell fusion; HeLa-JRFL Env/CEM21 cell fusion, luciferase; inhibition, % at 12.3 µM; 360,000 tested, 1.1% active;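 active = mean replicate inhibition score of at least 50 and every replicate individually at or above 50; inconclusive = only one of the two criteria met; inactive = mean below 50 and not all replicates reaching 50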;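 also: 0% = plate neutral controls and 100% = maraviroc near 300 nM; one replicate is shown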
eIF4H FP inh = inhibitors of RNA binding by human eIF4H. eIF4H fluorescence polarization binding assay. inhibition, % at 35 µM. 290,000 tested, 0.94% active;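 active = 50% or more with normal probe brightness, or confirmed in later tests; inconclusive = above 50% with abnormal brightness, or retests that disagree; inactive = below 50% or failed in later tests; about a fifth of its hits are not listed in these tables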;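 also: calls also rest on retests at 20 µM and on dose response follow-up; 0% = protein and probe with vehicle and 100% = probe without protein; strong numbers were not always called active; many hits fall short of the cut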
MT1-MMP act inh = blocks activation of human MT1-MMP; P50281; HT1080 RFP-PRO-GFP cells, GFP/RFP ratio fluorescence, overnight; percent of plate control window, DMSO zero; GFP/RFP ratio change, % at 20 µM; 360,000 tested, 0.061% active;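 active = GFP/RFP ratio change of at least 30% with cell ATP level not reduced by more than half and red fluorescence within 50% of control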; also: strong numbers were not always called active
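Compound: 20 µM single dose, 1% DMSO / System: HT1080 RFP-PRO-GFP cells / Controls: DMSO and RFP-L50D-GFP cell wells / Read-out basis: GFP/RFP fluorescence ratio / Schedule: overnight compound exposure at 37 °C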
Rce1 inh = inhibitors of yeast Ras-converting enzyme | Q03530 | yeast membranes, quenched prenylated peptide cleavage fluorescence | calls only | 290,000 tested, 0.27% active;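 active = fall in fluorescence gain of 50% or more versus controls, with final raw signal at or below 3038400; inconclusive = same 50% fall but final raw signal above 3038400; inactive = fall in fluorescence gain under 50%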;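 also: plate controls were neutral control wells for no effect and wells lacking membranes for full effect; tested at 10 µM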
Target sequence (Q03530 whole entry, looked up): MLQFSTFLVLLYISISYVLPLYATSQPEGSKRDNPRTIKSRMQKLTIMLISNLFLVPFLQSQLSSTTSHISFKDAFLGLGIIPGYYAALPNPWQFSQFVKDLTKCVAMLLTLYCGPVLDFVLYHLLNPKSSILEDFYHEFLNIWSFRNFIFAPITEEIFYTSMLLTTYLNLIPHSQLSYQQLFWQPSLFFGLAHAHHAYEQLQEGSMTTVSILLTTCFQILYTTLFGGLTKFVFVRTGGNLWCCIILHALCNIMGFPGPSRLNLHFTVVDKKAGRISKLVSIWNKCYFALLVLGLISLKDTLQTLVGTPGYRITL
PABP FP inh = PABP-poly(A) binding inhibition | P11940 | PABP-poly(A) RNA binding, fluorescence polarization | inhibition, % at 35 µM | 290,000 tested, 1% active | AID 2014;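 active = 50% or more with normal probe brightness, or confirmed in later tests; inconclusive = above 50% with abnormal brightness, or retests that disagree; inactive = below 50% or failed in later tests; about a fifth of its hits are not listed in these tables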;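 also: calls also rest on retests at 20 µM and on dose response follow-up; controls were probe without protein and protein plus probe with vehicle; some compounds called inactive have numbers as strong as hits; many hits fall short of the cut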
Target sequence (P11940 whole entry, looked up): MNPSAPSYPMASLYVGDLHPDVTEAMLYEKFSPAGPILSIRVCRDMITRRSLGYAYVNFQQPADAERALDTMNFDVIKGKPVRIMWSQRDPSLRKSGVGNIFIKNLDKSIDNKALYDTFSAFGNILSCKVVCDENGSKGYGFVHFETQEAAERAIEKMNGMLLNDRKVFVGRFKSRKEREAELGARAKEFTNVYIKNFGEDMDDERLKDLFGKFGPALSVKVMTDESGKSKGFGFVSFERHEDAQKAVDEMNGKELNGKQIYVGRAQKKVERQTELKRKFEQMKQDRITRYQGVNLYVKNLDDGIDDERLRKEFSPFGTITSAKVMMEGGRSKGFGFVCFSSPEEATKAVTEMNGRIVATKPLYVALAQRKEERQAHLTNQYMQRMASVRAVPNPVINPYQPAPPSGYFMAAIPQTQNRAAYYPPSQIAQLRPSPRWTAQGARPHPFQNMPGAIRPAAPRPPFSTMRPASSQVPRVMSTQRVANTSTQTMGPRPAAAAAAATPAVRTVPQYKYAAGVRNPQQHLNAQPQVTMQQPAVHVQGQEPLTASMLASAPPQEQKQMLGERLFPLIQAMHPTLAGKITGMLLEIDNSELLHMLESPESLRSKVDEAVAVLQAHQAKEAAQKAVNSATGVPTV
CSC inhib = cancer stem cell inhibition; 300,000 tested, 1.1% active; AID 2717; inhibition, % at 7.5 µM; cancer stem cell-like cells viability, luminescence;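 active = mean at 75% or more and at least half the replicates too; inconclusive = mean and replicates disagree; tested in HMLE shEcad cells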;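 also: 0% = median of negative and 100% = median of positive control wells; the first replicate is given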
UUG fidelity = yeast start codon fidelity modulation; S. cerevisiae UUG-firefly luciferase reporter, luminescence/redox ratio; activity score, % at 18.7 µM; 350,000 tested, 0.13% active;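 active = replicate mean at a twofold rise or more, about +100% in these data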;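 also: firefly luciferase made from a UUG start codon reports start codon fidelity; reporter light over untreated wells divided by growth signal over untreated wells; some hits fall short of that in this replicate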
MT1-MMP act inh RFP = further read-out of MT1-MMP act inh, marked with its call; RFP signal change, %; measured here: RFP expression control read;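 0 = vehicle wells; hits needed this value within 50% of zero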
The depositor's hits bear a star; i = inactive; ? = inconclusive; nt = not tested or not shown; + = active, no number; & = joins results of further samples.

Each structure is followed by: Env fusion inh	MT1-MMP act inh RFP	CSC inhib	PABP FP inh	eIF4H FP inh	MT1-MMP act inh	UUG fidelity	Rce1 inh
CC(C)OCCCN1CC(=O)N2C(c3ccccc3)c3[nH]c4ccccc4c3C[C@H]2C1=O (some centres not stated)
    11	-3	5	2	-3	-3	10	i
Cc1oc(-c2cccc(F)c2)nc1CN1CCCCC1CCc1ccccn1 (configuration not stated)
    54	2	-10	-3	5	-2	nt	i
CCOc1ccc(C(=O)NNC(=O)CN2C(=O)C3CC=CCC3C2=O)cc1OC (configuration not stated)
    1	1	-17	nt	nt	-1	-9	nt
CC1CN(C(=O)CCn2c(=O)oc3ccccc32)CC(C)O1 (configuration not stated)
    -7	5	3	0	-2	0	2	i
FC(F)(F)c1cc(-c2ccco2)nc(NCc2cccs2)n1
    -47	3	-6	10	24	-8	-19	i
CCN(CCCNC(=O)C1CCN(S(=O)(=O)N2CCOCC2)CC1)c1cccc(C)c1
    nt	3	-3	-4	-6	3	17	i
CCOc1ccc(CN2CCCC(CNC(=O)c3ccc(F)cc3)C2)cc1CO (configuration not stated)
    -7	3	3	4	-5	1	5	i
C[C@H]1CN([C@@H](C)CO)C(=O)CCCn2cc(nn2)CO[C@@H]1CN(C)S(C)(=O)=O
    21	2	nt	nt	nt	1	-11&-2	nt
Cn1c(C(=O)NCc2cccnc2)cc2sccc21
    nt	-2	0	-3	10	3	-5	i
CC(OC(=O)Cn1cnc2c1c(=O)n(C)c(=O)n2C)C(=O)NC(C)c1ccc(Cl)cc1Cl (configuration not stated)
    7	1	-6	nt	nt	-1	-7	i
COc1cccc(NC(=O)CN2C(=O)NC(CCc3ccccc3)C2=O)c1 (configuration not stated)
    -6	6	nt	nt	nt	2	-16	nt
CCCN(C(=O)COC(=O)CCC(=O)c1ccccc1)c1c(N)n(Cc2ccccc2)c(=O)[nH]c1=O
    -40	4	nt	nt	nt	1	-21	nt
CN(C)CCNC(=O)c1cc2c(s1)-c1ccccc1OC2
    -6	8	18	1	-2	3	-11	i
NS(=O)(=O)c1ccc(NC(=O)CSc2nc3c(c(=O)[nH]2)CCCC3)cc1
    1	1	-10	5	0	0	-7	i
CCCCN(CCCNC(=O)C1CCN(S(=O)(=O)N2CCOCC2)CC1)c1ccccc1
    nt	-2	-11	9	4	0	5	i
COc1ccc2cc(C(=O)/C=C/c3cc(OC)c(OC)c(OC)c3)ccc2c1
    -4	-3	46	6	-11	-6	-5	i
CCOc1ccc2nc(NC(=O)CN3CCOCC3)sc2c1
    4	-1	9	-8	7	5	-50	i
COc1cc(-c2ccccc2)nc(N)n1
    nt	6	-1	0	5	7	nt	nt
COc1ccc(OCC#CCNC(C)(C)C)cc1
    -11	3	2	27	-4	-5	1	i
CCOC(=O)c1cc(C(=O)OCC)cc(-n2cc(O)c(C(=O)OCC)n2)c1
    nt	-3	18	-3	-11	5	-13	i

The list goes on (five carried over from the part before).
Each structure is followed by: Env fusion inh	MT1-MMP act inh RFP	CSC inhib	PABP FP inh	eIF4H FP inh	MT1-MMP act inh	UUG fidelity	Rce1 inh
COc1ccc2cc(C(=O)/C=C/c3cc(OC)c(OC)c(OC)c3)ccc2c1
    -4	-3	46	6	-11	-6	-5	i
CCOc1ccc2nc(NC(=O)CN3CCOCC3)sc2c1
    4	-1	9	-8	7	5	-50	i
COc1cc(-c2ccccc2)nc(N)n1
    nt	6	-1	0	5	7	nt	nt
COc1ccc(OCC#CCNC(C)(C)C)cc1
    -11	3	2	27	-4	-5	1	i
CCOC(=O)c1cc(C(=O)OCC)cc(-n2cc(O)c(C(=O)OCC)n2)c1
    nt	-3	18	-3	-11	5	-13	i
CC(C)CNC(=S)NC1CC2CCC(C1)N2Cc1ccccc1 (configuration not stated)
    -8	9	11	-6	0	5	-27	i
CCOc1ccc(NC(=S)N2CCn3c(nc4ccccc43)C2)cc1
    nt	nt	-16	-8	-8	nt	nt	i
COc1ccc(Cl)cc1NC(=O)CNC(c1ccccc1)c1ccccc1
    8	-9	20	-1	4	-4	-20	i
Cc1cccc(NC(=O)CCN2C(=O)c3ccccc3C2=O)n1
    -13	-1	-2	-4	-12	6	-14	i
O=C(NC1(C(F)(F)F)N=C2SCCN2C1=O)c1ccco1 (configuration not stated)
    nt	-2	8	0	-6	-7	-18	i
Cn1ncc(Cl)c1C(=O)N1CCOCC1
    -3	3	4	-2	2	-1	nt	i
COCCOc1cc(NC(=O)c2cccc(OC)c2)c(Cl)cc1Cl
    -1	0	-1	-17	3	2	nt	i
CC(=O)N1C(=O)/C(=C2\SC(=S)N(NS(=O)(=O)c3ccc(C)cc3)C2=O)c2ccccc21
    25	5	nt	32	2	5	nt	nt
CCc1nnc(NS(=O)(=O)c2ccc(NC(=O)COc3ccc(Cl)c(C)c3)cc2)s1
    14	11	nt	-2	-2	7	nt	i
CC(c1ccco1)N(C(=O)Nc1ccccc1)C1CCCCC1 (configuration not stated)
    -24	0	-9	3	-1	3	-15	i
Cc1cc(NC(=O)CN2CCN(Cc3ccccc3)CC2)nc2c1c(=O)oc1ccccc12
    nt	nt	-5	2	-7	nt	nt	i
CCC(=O)Nc1ccc(C(=O)NNC(=O)COc2cccc(C)c2)cc1
    9	-2	-13	9	14	0	nt	i
COCCCNC(=O)c1ccccc1Oc1ccccc1
    nt	-1	-11	1	3	-1	-11	i
COc1cc(OC)c(OC)cc1CN1CCN(Cc2ccc(C(F)(F)F)cc2)CC1
    2	-3	40	5	0	6	13	i
CCc1ccc(C(=O)C(C)OC(=O)CNS(=O)(=O)c2ccc(C)cc2)cc1 (configuration not stated)
    19	6	-6	nt	nt	6	-5	i
CN(C)c1ccc(C(C(=O)NCC2CCCO2)N(Cc2ccco2)C(=O)c2snc(C(N)=O)c2N)cc1 (configuration not stated)
    4	1	1	11	-10	3	2	i
COc1ccc(-c2cn3ccc(C)cc3n2)cc1
    -40	-2	36	28	3	6	-42	+
COc1ccc(S(=O)(=O)Nc2c(C)nn(C)c2C)cc1Br
    nt	-17	-14	nt	nt	3	-11	nt
COc1ccc2sc(C)[n+](C)c2c1
    -5	7	-2	-9	-7	5	-3	i
CCOc1ccc(NC(=O)NNC(=O)C2CCC(C(C)(C)C)CC2)cc1 (configuration not stated)
    14	1	-3	-8	6	2	nt	i

In another format: 3 of the compounds above
molecule	Env fusion inh	MT1-MMP act inh RFP	CSC inhib	PABP FP inh	eIF4H FP inh	MT1-MMP act inh	UUG fidelity	Rce1 inh
COc1ccc(Cl)cc1NC(=O)CNC(c1ccccc1)c1ccccc1	8	-9	20	-1	4	-4	-20	i
COCCOc1cc(NC(=O)c2cccc(OC)c2)c(Cl)cc1Cl	-1	0	-1	-17	3	2	nt	i
CCOc1ccc(NC(=O)NNC(=O)C2CCC(C(C)(C)C)CC2)cc1 (configuration not stated)	14	1	-3	-8	6	2	nt	i

(more compounds)
Each structure is followed by: Env fusion inh	MT1-MMP act inh RFP	CSC inhib	PABP FP inh	eIF4H FP inh	MT1-MMP act inh	UUG fidelity	Rce1 inh
Cc1ccc(-c2nnn(CC(=O)N(CCCO)C(C(=O)NC3CCCC3)c3ccc(Cl)cc3)n2)o1 (configuration not stated)
    15	-3	10	0	-7	-3	-3	i
CN(C)NC(=S)Nc1cccc(C(F)(F)F)c1
    -5	3	-9	9	-4	5	-36	i
CC(C)CC(NC(=O)CC12CC3CC(CC(C3)C1)C2)C(=O)NC1=NCCS1 (configuration not stated)
    1	1	4	-5	-9	-2	nt	i
CC(C)OC(=O)n1c(=S)oc2ccccc21
    nt	3	-2	6	-7	9	-13	i
CSCC[C@@H](C(=O)O)N1Cc2ccccc2C1=O
    -148	5	-6	1	-5	2	-4	i
CCOC(=O)Cn1c(S(=O)(=O)Cc2ccc(Cl)cc2)nc(-c2ccccc2)c1-c1ccccc1
    114*	-11	9	6	-6	-9	-26	i
O=C(CSc1ccccn1)Nc1ccc(Cl)c([N+](=O)[O-])c1
    6	3	4	-7	-2	2	nt	i
O=C1S/C(=C/c2ccccc2)C(=O)N1CC(O)Cn1c2ccccc2c2ccccc21 (configuration not stated)
    6	-3	17	-3	6	-1	-5	i
Cc1cc(N2CCCCC2)n2ncc(-c3ccccc3)c2n1
    nt	-5	23	-5	-8	-2	nt	i
CC(=O)c1c(N2CCOCC2)[nH]c(-c2ccccc2)nc1=S
    -2	5	-3	4	7	-7	-4	i
COc1ccccc1-c1nnc(C2CCN(S(=O)(=O)c3ccccc3[N+](=O)[O-])CC2)o1
    32	-1	-2	-11	1	-2	2	i
O=C(CCSc1nnc(-c2ccco2)o1)N1CCOCC1
    -1	2	-13	9	-2	-1	-9	i
CCOc1ccc2nc(N(CCN(CC)CC)C(=O)/C=C/c3cccs3)sc2c1
    3	-8	9	0	-15	-3	-3	i
COc1ccc(OC)c(CN2CCC(C(=O)N3CCN(c4ccccc4F)CC3)CC2)c1
    8	2	19	10	4	1	-3	i
COC(=O)c1ccccc1NC(=S)NC(=O)c1ccc(C)cc1
    nt	3	3	-7	-8	0	nt	i
CC(C)CCNC(=O)C(c1ccncc1)N(CC1CCCO1)C(=O)Cn1nnc(-c2ccc(F)cc2)n1 (configuration not stated)
    3	3	-7	-2	-2	-1	nt	nt
CC1=C(C(=O)Nc2ccccc2)C(c2ccco2)C(C#N)=C(SCc2ccccc2)N1 (configuration not stated)
    nt	nt	?	-8	-12	nt	nt	i
CNC(=O)NC(=O)Cn1cnc2sc(-c3ccccc3)cc2c1=O
    28	-3	nt	-3	-4	-1	-18	i
CC(C)C(=O)Nc1c2c(nn1-c1ccc(F)cc1)CS(=O)(=O)C2
    -25	0	-8	-6	-5	1	-6	i
CCOC(=O)c1nnn(-c2nonc2N)c1C
    -72	2	-6	13	-6	-2	nt	i

Quoted at random: 3 entries already listed
Each structure is followed by: Env fusion inh	MT1-MMP act inh RFP	CSC inhib	PABP FP inh	eIF4H FP inh	MT1-MMP act inh	UUG fidelity	Rce1 inh
CCc1ccc(C(=O)C(C)OC(=O)CNS(=O)(=O)c2ccc(C)cc2)cc1 (configuration not stated)
    19	6	-6	nt	nt	6	-5	i
CC(C)CC(NC(=O)CC12CC3CC(CC(C3)C1)C2)C(=O)NC1=NCCS1 (configuration not stated)
    1	1	4	-5	-9	-2	nt	i
C[C@H]1CN([C@@H](C)CO)C(=O)CCCn2cc(nn2)CO[C@@H]1CN(C)S(C)(=O)=O
    21	2	nt	nt	nt	1	-11&-2	nt

Following part:
Each structure is followed by: Env fusion inh	MT1-MMP act inh RFP	CSC inhib	PABP FP inh	eIF4H FP inh	MT1-MMP act inh	UUG fidelity	Rce1 inh
COCC(=O)Nc1cc(C(=O)NCCc2ccccc2)ccc1Cl
    nt	4	-9	-13	-2	3	-19	i
O=C(CCCCCNC(=S)Nc1ccccc1)C[N+](=O)[O-]
    21	4	-12	10	-6	1	nt	i
O=C(COC(=O)c1ccc(CO)cc1)c1ccc(S(=O)(=O)N2CCCCC2)cc1
    -6	-1	2	nt	nt	-3	3	nt
CCCc1nc2ccc(C)cn2c1Cc1ccccc1C(F)(F)F
    37	-12	nt	nt	nt	-3	105*	nt
Cn1c(SCC(=O)NNC(=S)Nc2ccccc2)nnc1-c1ccncc1
    nt	nt	1	8	-9	nt	nt	i
